FGF22 binding = FGF22 (human) thermal shift binding; Q9HCT0; recombinant FGF22 thermal shift, SYPRO orange fluorescence; percent of sucrose octasulfate shift, DMSO zero; calls only at 9.99 µM; hit rate 1.5% among 340,000; AID 651658;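 active = melting point raised past a set limit in the mean and every replicate; inconclusive = no clear call; three in four hits are not shown here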
Target sequence (Q9HCT0 whole entry, looked up): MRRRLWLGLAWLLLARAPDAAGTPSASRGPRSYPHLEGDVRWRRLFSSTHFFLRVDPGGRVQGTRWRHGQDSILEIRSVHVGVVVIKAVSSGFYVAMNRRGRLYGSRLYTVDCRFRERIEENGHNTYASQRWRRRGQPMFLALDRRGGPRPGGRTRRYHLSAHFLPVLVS
Vif A3G = HIV-1 Vif–A3G interaction blockers – biochemical, TR-FRET, GST-Vif 1-94, biotin-A3G peptide, dose response retest, primary screen (AID 1117319); TR-FRET GST-Vif / biotin-A3G peptide binding; higher % means a stronger effect; test concentration not given here; strong numbers were not always called active; inhibition, %, or IC50 in µM where a hit was titrated; hit rate 0.57% among 260,000;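 active = above the screen mean plus three standard deviations and confirmed in dose response; inconclusive = results disagree or hit not tested in dose response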;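 note: Vif residues 1-94 fused to GST binding biotinylated APOBEC3G peptide 110-148; 0% = full assay without inhibitor and 100% = GST in place of GST-Vif; retest series ran down from 100 µM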
E coli growth = E. coli growth inhibition. OD600 absorbance (concentration not given with the values). hit rate 0.21% among 330,000. AID 1053175. Escherichia coli growth, OD600, 23 h; active compounds read low;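 active = OD600 absorbance below the run mean of sample wells minus 3.6 SD, in any replicate, cut at about 0.56 in these data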;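 note: stock transfer was 300 nL into about 60 µL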
HNF4A DNA FP = change in binding of human HNF4 alpha to DNA; P41235; HNF4a-FITC DNA binding, fluorescence polarization, 1 h; activity change, % at 10 µM; hit rate 0.3% among 360,000; in the data active = activity change above about 30%, passing the limit was not always enough;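 note: controls were the assay level and a saturating level of protein; the project sought stronger binding though the title names inhibitors; some compounds called inactive have numbers as strong as hits; positive values seem to mean higher polarization but the record does not say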
ALR H2O2 inh = inhibitors of human sulfhydryl oxidase ALR | P55789 | purified ALR, DTT oxidation, H2O2 HRP-luminol luminescence | inhibition, % (concentration not given with the values) | hit rate 3.8% among 290,000;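 active = mean and each replicate at 75% or more; inconclusive = only one of the two met; inactive = neither met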;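 note: stock transfer was 7.5 nL into about 7.5 µL; 0% = neutral wells and 100% = wells with inactivated enzyme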
Target sequence (P55789 whole entry, looked up): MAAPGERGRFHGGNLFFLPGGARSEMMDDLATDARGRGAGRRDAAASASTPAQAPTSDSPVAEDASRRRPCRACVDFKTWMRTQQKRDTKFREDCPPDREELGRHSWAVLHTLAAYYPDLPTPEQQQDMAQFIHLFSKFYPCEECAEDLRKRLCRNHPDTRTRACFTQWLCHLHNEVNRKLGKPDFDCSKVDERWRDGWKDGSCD
Ecoli rRNA inh = inhibits bacterial ribosomal RNA function over humanized ribosomes; E. coli WT GFP vs humanized-ribosome RFP mutants, fluorescence, 24 h; active compounds read low; DMSO median 0, no signal -100; hit rate 1.6% among 350,000; GFP signal change (wild-type ribosome), % (no concentration beside the values);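 active = significant combined selectivity score with lowered wild-type GFP, culture density cut under 30%, mutant RFP and density less affected; inactive = any of these conditions unmet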; note: one replicate is shown; some compounds called inactive have numbers as strong as hits
AF4-AF9 inh = blocks AF4 peptide binding to human AF9; P42568; AlphaScreen, biotin-AF4 peptide binding to FLAG-AF9; inhibition, % at 10 µM; hit rate 0.47% among 350,000; AID 651704;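 active = every replicate reaching a set inhibition limit, whatever the replicate mean, cut at about 25% in these data; inconclusive = mean inhibition reaches that limit but some replicates miss it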;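 note: 0% = plate neutral control median and 100% = total signal loss; the record names both 10 and 1 µM as test concentration; the first replicate is given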
Target sequence (P42568 whole entry, looked up): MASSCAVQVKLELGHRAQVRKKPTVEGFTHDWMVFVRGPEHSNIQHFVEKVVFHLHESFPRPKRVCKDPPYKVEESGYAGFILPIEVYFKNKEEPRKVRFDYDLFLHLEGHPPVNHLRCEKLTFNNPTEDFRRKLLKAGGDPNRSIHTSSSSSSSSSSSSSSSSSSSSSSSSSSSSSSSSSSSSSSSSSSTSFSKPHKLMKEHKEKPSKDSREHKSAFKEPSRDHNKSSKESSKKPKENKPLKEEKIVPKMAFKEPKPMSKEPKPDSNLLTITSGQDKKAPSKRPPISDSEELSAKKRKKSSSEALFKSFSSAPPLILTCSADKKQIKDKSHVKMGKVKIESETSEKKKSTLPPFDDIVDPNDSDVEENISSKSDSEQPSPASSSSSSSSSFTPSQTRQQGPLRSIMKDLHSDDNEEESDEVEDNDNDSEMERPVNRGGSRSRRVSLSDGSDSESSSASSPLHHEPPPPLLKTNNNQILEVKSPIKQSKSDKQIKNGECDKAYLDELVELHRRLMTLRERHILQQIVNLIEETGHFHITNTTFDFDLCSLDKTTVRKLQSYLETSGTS
Ecoli rRNA inh OD600 = also measured in Ecoli rRNA inh; calls as there; OD600 change, %; measured here: OD600 growth;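 optical density of the mix in the first replicate; 0 = DMSO median and -100 = no signal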
Ecoli rRNA inh RFP = second read-out of Ecoli rRNA inh, no call of its own (marks repeat the call); RFP signal change, %; measured here: RFP humanized mutant strains;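 first replicate; 0 = DMSO median and -100 = no signal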
An asterisk follows results filed as active; i = inactive; ? = inconclusive; . = no result given; & = joins results of further samples.

SMILES	AF4-AF9 inh	Vif A3G	Ecoli rRNA inh OD600	ALR H2O2 inh	E coli growth	Ecoli rRNA inh RFP	Ecoli rRNA inh	HNF4A DNA FP	FGF22 binding
O=C(CN1CCC(n2nnc3cc(F)ccc32)CC1)N1CCCc2ccccc21	.	2%	.	.	0.72	.	.	1.2	.
C[C@@H]1CN([C@H](C)CO)C(=O)c2cccc(NC(=O)c3nc4ccccc4s3)c2O[C@@H]1CN(C)S(=O)(=O)c1cccs1	2.6	.	-6	.	.	-1.2	-3	.	i
Cc1ccc(NC(=O)CN(C)C(=O)Nc2ccc(C)cc2)cc1	-4.4	.	12	-15	0.7	-0.1	7	1.1	i
NCC[C@@H]1CC[C@H](NC(=O)NC2CCCCC2)[C@H](CO)O1	-1.1	.	2	.	.	-1.0	-4	.	i
Cc1cc(C)n(C(=O)CCNC(=O)c2ccccc2Br)n1	.	-2%	.	4	0.69	.	.	-1.7	.
COc1ccc2c(c1)CCC1C2=NN(/C(C)=C\C(C)=O)C1c1ccc(F)cc1 (stereo not drawn)	3.8	1%	0	-34	0.64	-2.2	3	53*	i
O=c1oc(-c2ccco2)nc2c1cnn2-c1ccccc1	.	4%	.	7	0.78	.	.	2.9	.
C[C@H](CO)N1C[C@H](C)[C@H](CN(C)C)Oc2cc(C#Cc3ccccn3)ccc2S1(=O)=O	-1.5	.	3	.	.	2.5	8	.	i
CCc1cccc(C)c1NC(=O)c1ccoc1C	.	3%	.	6	0.72	.	.	-2.4	.
O=[N+]([O-])c1ccc(N2CCC(=NOCc3ccc(Cl)cc3)CC2)cc1	.	31%	.	-16	0.74	.	.	4.3	.
CCOC(=O)C1=C(COC(=O)/C=C/c2ccc(OCC)c(OC)c2)NC(=O)NC1C (stereo not drawn)	-1.0	-4%	4	-1	0.66	-1.3	-1	5.3	i
C/C(=N\NC(=O)OC(C)(C)C)c1ccc(-n2ccnc2)cc1	-0.5	-8%	-42	-4	.	-11	-24	-0.9	i
COC(=O)c1sc2cc(=O)n(-c3cccc(C(F)(F)F)c3)nc2c1O	-1.4	3%	14	18	0.68	1.5	12	3.6	i
COCCn1c(=O)c2cc3c(=O)n(CCOC)c(=O)c3cc2c1=O	7.1	-3%	14	-4	0.7	-5.2	13	-5.1	i
CCCCOC(=O)c1sc2nc(N3CCOCC3)c3c(c2c1N)CC(C)(C)OC3	3.6	10%	-2	2	0.7	-4.4	11	-0.4	i
Cn1cc(CN2CCN(Cc3ccccc3)C(CCO)C2)c(-c2ccccc2)n1 (stereo not drawn)	1.5	0%	4	.	0.69	-1.0	10	0.6	i
COc1cc(NC(=O)C2CCC(=O)N2S(=O)(=O)c2ccc(C)cc2)cc(OC)c1 (stereo not drawn)	3.9	.	-75	2	0.69	-13	-52	0.1	i
COc1ccc(NC(=S)NC(NC(=O)/C=C/c2ccccc2)C(Cl)(Cl)Cl)cc1 (stereo not drawn)	.	5%	.	-3	0.71	.	.	6.9	.
C=CCOC(=O)C1=C(C)NC(SCC(=O)NC(=O)OCC)=C(C#N)C1c1cccnc1 (stereo not drawn)	-2.0	-6%&1%	-10	2	0.66	-1.5	-1	-8.1&-14	i
COc1cccc(-c2cnc3c(NC(C)=O)cc(-c4cc(OC)c(OC)c(OC)c4)cn23)c1	2.3	.	5	.	.	0.1	3	4.2	i
CN(C)C(=O)c1ccc(NS(=O)(=O)c2ccc3c(c2)OCCO3)cc1	-1.0	.	10	-1	0.71	0.9	1	-0.7	i
COc1ccc(-n2c(C)nc3c(cnn3-c3ccc(C)cc3)c2=O)cc1	.	.	.	-8	0.73	.	.	-4.8	.
O=CNC1(c2ccccc2)CCCCC1	-0.3	.	3	.	.	-4.7	4	-2.4	i
O=C1CC(c2cc(F)ccc2F)c2cc3c(cc2N1)CCC3 (stereo not drawn)	-0.5	.	-4	-12	0.7	0.1	-9	5.3	i
C[C@@H]1CN([C@H](C)CO)C(=O)Cc2cc(NC(=O)Nc3ccc4c(c3)OCO4)ccc2O[C@H]1CN(C)CC1CCCCC1	2.0	.	-34	.	.	31	-11	.	i
COc1ccc(OC)c(/C=C/C(=O)OCC(=O)Nc2cccc(C(C)=O)c2)c1	.	-6%	.	-12	0.64	.	.	4.8	.
C[C@@H]1CN([C@H](C)CO)C(=O)c2cc(NC(=O)Nc3ccc(F)cc3)ccc2O[C@H]1CN(C)Cc1ccc(C(F)(F)F)cc1	-0.6	.	-13	.	.	-0.7	1	.	i
CCOc1ccc(C(=O)NCc2ccncc2)cc1	.	1%	.	-10	0.72	.	.	-3.1	.
CC(=O)Nc1ccc(S(=O)(=O)Nc2ccccc2N2CCOCC2)cc1Cl	-0.6	.	-10	13	0.72	-0.4	-2	-2.2	i
Nc1nnc(Cc2ccc(Cl)c(Cl)c2)s1	.	-6%	.	-17	0.68	.	.	-0.6	.
C=CC[C@@H](CC(=O)OC(C)(C)C)C(=O)OC[C@@H]1CCCN1C(=O)[C@@H](CC=C)CC(=O)N[C@H](CO)Cc1ccccc1	-13	.	-3	-16	.	14	10	-1.8	i
COc1cccc(C(=O)Nc2cccnc2)c1OC	-1.8	26%	9	-7	0.7	-2.3	9	2.4	i
O=C(CSc1ncnc2c1oc1ccccc12)NC1CCCCC1	-0.8	?	13	-10	0.73	-2.2	6	-2.2	i
CN(C(=O)c1ccccc1-c1ccccc1C(=O)O)c1ccccc1	-8.2	-3%	4	.	0.69	-0.1	2	4.4	i
CC(C)(C)c1ccc(C(=O)NCCc2ccccc2)cc1	-13	-3%	-14	-1	0.68	-1.1	-4	2.8	i
COc1ccc(S(=O)(=O)NCc2ccco2)cc1C(=O)N1CCCCC1	-11	.	10	-15	0.67	-2.5	7	2.9	i

A few values from the entries so far.
CC(C)(C)c1ccc(C(=O)NCCc2ccccc2)cc1 – E coli growth: 0.68
C[C@@H]1CN([C@H](C)CO)C(=O)c2cc(NC(=O)Nc3ccc(F)cc3)ccc2O[C@H]1CN(C)Cc1ccc(C(F)(F)F)cc1 – Ecoli rRNA inh OD600: -13

Remaining list, next part.
SMILES	AF4-AF9 inh	Vif A3G	Ecoli rRNA inh OD600	ALR H2O2 inh	E coli growth	Ecoli rRNA inh RFP	Ecoli rRNA inh	HNF4A DNA FP	FGF22 binding
O=C(Cc1cccs1)N/N=C/C=C\c1ccco1	-3.4	?	.	33	.	.	.	-1.3	i
O=S(=O)(c1ccccc1)N1CCCCN2[C@H](CO)[C@@H](c3ccc(C#CC4CCCC4)cc3)[C@@H]2C1	-7.2	.	-2	.	.	7.5	0	.	i
O=[N+]([O-])c1cc(Cl)ccc1Nc1ccccc1	.	.	.	-16	0.68	.	.	-4.4	.
Cc1ccc(CN(C)C(=O)CN2C(=O)NC3(CCCc4ccccc43)C2=O)c(C)c1 (stereo not drawn)	2.2	-4%	-36	1	0.68	-2.3	-8	-0.7	i
COc1ccc(NS(=O)(=O)c2cc(NC(=O)CCNC(C)=O)ccc2N2CCCCC2)cc1	1.3	.	-26	1	0.69	2.2	-10	2.4	i
Cn1c(=O)c2c(nc(SCC(=O)NCC3CCCO3)n2C)n(C)c1=O (stereo not drawn)	3.5	5%	5	-3	0.69	-4.5	16	-2.9	i
COc1ccc(NC(=O)C2Cc3ccccc3O/C2=N\O)cc1 (stereo not drawn)	-3.5	-3%	1	0	.	-2.4	3	-3.8	i
O=C(c1ccccc1)N1CCN(CC#Cc2ccccc2)CC1	.	8%	.	8	0.79	.	.	3.4	.
OC(c1ccc(Cl)c(F)c1)c1ncc(-c2cccc3ccccc23)[nH]1 (stereo not drawn)	4.8	.	.	.	.	.	.	-2.8	i
CC(=C\c1ccccc1)/C=C1/SC(=S)N(C(C(=O)O)C(C)C)C1=O (stereo not drawn)	0.8	-2%	-8	.	0.72	0.0	-11	1.2	i
CC=Cc1ccc2n(c1=O)C[C@@H]1[C@@H](CO)[C@H](C(=O)NCc3ccccc3)N(Cc3cncnc3)[C@H]21 (mixture of isomers)	1.3	.	9	.	.	2.4	3	.	i
COC(=O)CSc1nc2ccccc2c(=O)n1C	.	20%	.	-6	0.66	.	.	0.3	.
COc1ccc(S(=O)(=O)N2CCOC2CNC(=O)C(=O)NCc2ccc(F)cc2)cc1OC (stereo not drawn)	-2.3	.	6	23	0.74	1.6	3	3.7	i
Cc1ccccc1C(=O)OC(C)CN1CCN(C)CC1 (stereo not drawn)	-1.2	?	1	1	0.71	-4.9	10	-1.4	i
COc1ccc(/C=C/C(=O)N(C)c2ccccc2C(=O)O)cc1	1.7	24%	6	0	0.73	0.9	12	0.3	i
O=C(NCC(c1cccs1)N1CCOCC1)c1ccc(OCc2ccccc2)cc1 (stereo not drawn)	-0.8	-4%	-20	0	0.64	0.8	-10	0.0	i
C=CCn1c(SCC(=O)Nc2sc3c(c2C#N)CCC3)nnc1C1COc2ccccc2O1 (stereo not drawn)	.	8%	.	.	0.8	.	.	2.7	.
COc1ccccc1C(=O)NNC(=O)c1ccc(F)cc1	-4.2	.	9	-1	0.7	-0.2	14	1.1	i
CC(C)(C)NC(=O)CCN1CCOCC1	.	-3%	.	-13	0.72	.	.	1.6	.
NC(=O)CSc1oc(-c2ccco2)nc1S(=O)(=O)c1ccc(Br)cc1	.	.	.	-5	0.68	.	.	5.2	.
O=C(CSc1nnc(CNC(=O)c2cccs2)o1)Nc1ccc(Br)cc1	0.8	.	3	-1	0.67	5.1	1	-3.1	i
CCc1cc(C(=O)Nc2ncccc2O)sc1C	1.9	3%	-9	14	0.66	-1.5	2	-2.4	.
COc1ccc(NC(=O)Nc2ccc3c(c2)[C@@H]2C[C@H](CC(=O)N4CCN(C)CC4)O[C@H](CO)[C@@H]2O3)cc1	3.8	.	1	.	.	-1.4	6	.	i
C[C@@H]1CCCCO[C@@H](CN(C)Cc2ccc(Cl)c(Cl)c2)[C@H](C)CN([C@H](C)CO)C(=O)c2cc(NC(=O)CCC(F)(F)F)ccc2O1	-4.4	.	-9	.	.	3.8	1	.	i
Cc1ccc(S(=O)(=O)N[C@@H]2CC[C@H](CCn3cc(C(C)C)nn3)O[C@@H]2CO)cc1	-0.5	.	-6	.	.	-3.6	-1	.	i

Assay outcomes from PubChem BioAssay.

An excerpt; rates above refer to the full screens.
